HPGD inh – blocks human HPGD enzyme activity; Potency, µM, without a hit: top-dose activity change, negative = inhibition, actives largely listed as inhibitors; 150,000 tested, 4.3% active; purified HPGD, NADH fluorescence kinetic, PGE2 substrate; P15428; active = well fitted inhibition curve with a large enough effect (not every such curve was filed as active); inconclusive = small, poorly fitted or top-dose-only effect, or another doubt; inactive = no such curve, though single readings can be large or run the other way;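 note: top concentration of the series not given in the record; plate controls included wells without enzyme; inactives centre near -10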
Target sequence (P15428 whole entry, looked up): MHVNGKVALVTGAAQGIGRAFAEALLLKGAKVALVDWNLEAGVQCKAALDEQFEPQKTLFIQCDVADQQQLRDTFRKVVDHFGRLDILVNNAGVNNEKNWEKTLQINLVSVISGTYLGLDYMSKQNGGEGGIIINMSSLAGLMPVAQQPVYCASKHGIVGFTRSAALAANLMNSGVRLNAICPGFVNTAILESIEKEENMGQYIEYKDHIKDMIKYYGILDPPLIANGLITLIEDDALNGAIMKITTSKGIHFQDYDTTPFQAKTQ
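NADH formation kinetics: reaction with 30 uM PGE2 and 1 mM NAD+ (final), 20 nM enzyme, Tris-HCl pH 8 with Tween 20, after 15 min compound preincubation at room temperature. Fluorescence change, last versus first of five reads.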
Starred values were filed as active, the others as inactive; ? = inconclusive; & = joins results of further samples. % is set by controls: 0 for no effect and ±100 for the full control effect; potency is the fitted concentration of half-maximal effect. Not all compounds are listed; the hit share may differ from the screen's.

SMILES | HPGD inh
Cc1ccc(S(=O)(=O)Oc2ccc(/C=C3/N=C(c4ccccc4)OC3=O)cc2)cc1 | -25%
Cc1ccc(C(C)C)c(OCC(O)CN2CCOCC2)c1 (centres undefined) | -21%
COc1ccc(C2C(=O)N(C3CCCCC3)CC(=O)N2Cc2ccco2)cc1 (centres undefined) | -16%
Cc1ccc(-c2nc3cnccn3c2Nc2ccc3c(c2)OCO3)o1 | -29%
O=C(CSc1nnc(-c2ccccc2F)n1C1CCCCC1)N1CCCC1 | -7%
COc1c(O)cccc1-c1nnn(CCC(=O)OCC(=O)c2ccccc2)n1 | -6%
O=C(CCCOc1ccccc1)Nc1cccc(C(=O)O)c1 | -7%
Cc1cc(C(=O)N/N=C/C=C/c2ccc3c(c2)OCO3)n[nH]1 | ?
Cc1c(NC(=O)C(C)OC(=O)COc2cccc3c2OC(C)(C)C3)c(=O)n(-c2ccccc2)n1C (centres undefined) | -15%
COc1ccc2c(=O)c3c(=O)n(Cc4ccco4)c(-c4ccccc4)nc3oc2c1 | -19%
Cc1onc(-c2ccccc2Cl)c1C(=O)NCC(=O)O | -7%
Cc1cccc(C(=O)Nc2ccc(C)c(OC(=O)c3cccc(C)c3)c2)c1 | -16%
CCCCC(=O)Nc1cccc(NC(=O)c2ccc(Br)cc2)c1 | 0%
COC(=O)c1c(C(=O)OC)c2cc(C(=O)c3ccccc3)ccn2c1Cl | ?
Cc1cc([N+](=O)[O-])ccc1NC(=O)/C=C/c1cccs1 | -10%
[O-][N+]1(CC[N+]2([O-])CCCCC2)CCCCC1 | -8%
COc1ccccc1C(=O)Nc1ccc(C(=O)N2CCCC2)cc1 | 1.4µM*
COCCNC(=O)Nc1ccc2c(c1)N(C)C(=O)CS2 | -7%
CCc1ccccc1NC(=O)C(C#N)Cc1cccnc1 (centres undefined) | -3%
CCOC(=O)NC(Nc1ccc(C)cn1)(C(F)(F)F)C(F)(F)F | ?
CCOC(=O)N1CCN(S(=O)(=O)c2ccc3c(c2)oc(=O)n3C)CC1 | 2%
CC1(C)CCCC2=C1CC1C(=O)N(O)C(=O)C1C2 (centres undefined) | -3%
Cc1cc(O)c(C=O)c2c1C(=O)Oc1c(COC(=O)/C=C/C(=O)O)c(O)c(C(=O)O)c(C)c1O2 | 1.4µM*
Cc1nn(-c2ccccn2)c2c1C(c1ccccn1)C1=C(CCCC1=O)N2 (centres undefined) | ?
CN(c1ccccc1C(=O)NCC1CCCO1)S(C)(=O)=O (centres undefined) | -7%
Continuation.
SMILES | HPGD inh
COc1ccc(NC(=O)Cn2nnc(-c3ccccc3NC(=O)c3ccco3)n2)cc1 | -21%
Cc1cccc(NC(=S)Nc2ccc(N3CCOCC3)cc2)c1C | ?
CCOC(=O)c1c(NC(=O)C2CCN(S(=O)(=O)c3cccs3)CC2)sc(C)c1C | -19%
CCOC(=O)C1CCCN(c2c(NCCN(CC)c3ccccc3)c(=O)c2=O)C1 (centres undefined) | 0%
Cc1ccc(Nc2ncccc2C(=O)O)cc1C | -13%
CCN(CC)CCNc1nc2cc(OC)c(OC)cc2c2nc(-c3ccccc3)nn12 | -13%
ClC/C=C/CCl | -8%
CN1c2ccccc2C(O)=C(C(=S)Nc2ccccc2)S1(=O)=O | -13%
Cc1csc(NC(=O)Cc2ccccc2[N+](=O)[O-])n1 | -5%
FC(F)(F)c1nc(N2CCN(c3ccccc3)CC2)nc2c1CCCCC2 | -25%
O=[N+]([O-])c1ccc2nc(SCc3cn4cc(Cl)ccc4n3)[nH]c2c1 | ?
COc1cc(C(=O)Oc2ccccc2N)cc(OC)c1OC | -15%
CC1CC(C)CN(C(=O)CSc2nnc(-c3ccc(Cl)s3)o2)C1 (centres undefined) | -27%
Cc1cc(F)ccc1S(=O)(=O)Nc1ncnc2scc(-c3ccc(F)cc3)c12 | -7%
COc1ccc(COC(=O)Nc2cc3c(C(F)(F)F)nn(C)c3s2)cc1 | -7%
O=C(NCN1C(=O)C2C3C=CC(C3)C2C1=O)Nc1ccccn1 (centres undefined) | -8%
CCCCSc1nc2c(c(=O)n1CC)SC(C)C2 (centres undefined) | -9%
COc1ccccc1[C@@H]1C(c2cccc(Cl)c2)=NN(c2ccc(Br)cc2)[C@H]1C(=O)N1CCOC1=O | ?
Clc1ccc2c(c1)C(C1=NCCN1)c1ccccc1CS2 (centres undefined) | 0%
O=C(NC1CC1)C1CCN(Cc2cnn(-c3ccccc3)c2-n2cccc2)CC1 | -16%
CC(C)N(C(=O)c1ccccc1-c1ccccc1)C(C)C | -6%
Cc1ccccc1N1CCN(C(=O)C2CCCCC2)CC1 | -14%
Cc1cc(=O)oc2c1ccc1oc(/C(=N/O)c3ccccc3)c(C)c12 | 13µM*
O=C(NCc1cccnc1)C1CCN(C(=O)c2ccc(Cl)cc2Cl)CC1 | -9%
COc1ccc(C2CC(c3cccs3)=NN2C(=O)c2ccc(Br)o2)cc1 (centres undefined) | ?

Of the compounds above, these have bromine.
SMILES | HPGD inh
CCCCC(=O)Nc1cccc(NC(=O)c2ccc(Br)cc2)c1 | 0%
COc1ccccc1[C@@H]1C(c2cccc(Cl)c2)=NN(c2ccc(Br)cc2)[C@H]1C(=O)N1CCOC1=O | ?
COc1ccc(C2CC(c3cccs3)=NN2C(=O)c2ccc(Br)o2)cc1 (centres undefined) | ?

Continued.
SMILES | HPGD inh
CS(=O)(=O)Nc1cccc(-c2nc(N3CCNCC3)c3ccccc3n2)c1 | -16%
Cc1ccc(C)n1NC(=O)c1ccc(O)cc1 | -24%
O=C(CSc1ccccc1)Nc1ccc(N2CCN(c3ccccc3)CC2)c(F)c1 | -7%
CN(C)c1ccc(C(=O)OCC(=O)c2cccs2)cc1 | -11%
CCOC(=O)N1CCN(C(=O)CSCC(=O)Nc2nc(-c3ccccc3)cs2)CC1 | 0%
Cc1nn(C(C)C(=O)NCc2ccccc2)c(C)c1[N+](=O)[O-] (centres undefined) | -9%
CNC(=O)[C@H](C)[C@H]1C[C@]1(C)[C@H](NC(=O)OCc1ccccc1)c1ccccc1 | -11%
N#Cc1ccccc1Cn1c(=O)n(-c2ccc(CC(=O)NCc3ccco3)cc2)c(=O)c2sccc21 | -8%
CSCC[C@H](NC(=O)CCn1nnc2ccccc2c1=O)C(=O)O | -4%
CC(=O)c1cnc2cc(-c3ccc(Cl)cc3)nn2c1C | ?
CCOC(=O)c1ccc(CSc2ncn[nH]2)o1 | -23%
Cc1cc(NC(=O)/C=C/c2ccccc2Cl)no1 | -13%
O=C(CNC(=O)c1ccco1)OCc1cccc(Cl)c1 | -3%
Cc1cccc(-c2noc(CCC(=O)NCC3CCCO3)n2)c1 (centres undefined) | 25µM*
CC(C)(C)NC(=O)CSc1ncnc2c1nnn2Cc1ccccc1Cl | 32µM*
Cc1ccccc1NC(=O)Cc1ccccc1 | ?
NCCc1nnc(SCc2ccccc2F)o1 | -10%
O=C(CSc1nc2cc3ccccc3cc2[nH]1)Nc1ccc(F)cc1 | -11%
COC(=O)c1c(S(N)(=O)=O)c2ccccc2n1C | ?
CC(C)(C)C(=O)OCC(=O)C1CCC2C3CCC4=CC(=O)CCC4(C)C3CCC12C (centres undefined) | -9%
COCCOc1cc(N2C(=O)CSCC2=O)c(Cl)cc1Cl | -6%
CCN(CCCNC(=O)c1c(C)cc(=O)oc1C)c1cccc(C)c1 | -18%
O=C(/C(=N\Nc1ccccc1)Sc1nnnn1-c1ccccc1)c1ccccc1 | -16%
CC(C)c1ccc(Cn2ccc3c4c(N)nc(NC5CC5)nc4ccc32)cc1 | ?
CNCCCC1c2ccccc2C=Cc2ccccc21 | -8%&-14%&-10%
Next compounds follow.
SMILES | HPGD inh
CC1C/C(=N/NC(=O)c2cccc(F)c2)c2ccc(O)cc2C1 (centres undefined) | -14%
COc1ccccc1-n1c(=O)c2c3c(sc2n2c(SC(C)C)nnc12)CCC3 | -5%
COc1cc(/C=N/NC(=O)c2ccc(COc3ccccc3Cl)o2)cc(Br)c1O | -10%
COc1ccc(C(=O)NC(=S)NNC(=O)c2ccc(NC(=O)C(C)C)cc2)cc1 | -27%
Cc1cc(C)n(CCSCC(=O)O)n1 | -10%
CCCn1nnc(NC(=O)c2ccco2)n1 | 8%
CC(C)(C)c1ccc(S(=O)(=O)N2CCSC2)cc1 | -9%
Cc1ccccc1C(=O)NNC(=O)CN1C(=O)c2ccccc2C1=O | -6%
O=S(=O)(Nc1ccccc1)c1ccc(Oc2ncc(C(F)(F)F)cc2Cl)cc1 | -27%
C/C(=N/NC(=O)C1CC1(c1ccccc1)c1ccccc1)c1ccco1 (centres undefined) | -3%
CCCOP(=O)(c1ccccc1)c1ccccc1 | -7%
CCC(C)[C@H](NC(=O)CCn1nnc2ccccc2c1=O)C(=O)O (some centres undefined) | -6%
COc1ccccc1C(=O)Nc1nnc(SCC(=O)Nc2ccc3c(c2)oc2ccccc23)s1 | ?
O=C(NCc1nnc(SCc2ccccc2)n1-c1ccc(F)cc1)C12CC3CC(CC(C3)C1)C2 | -6%
CCC(NC(=O)Nc1ccc(O)cc1)(C(F)(F)F)C(F)(F)F | -8%
Cc1cc(=O)oc2cc(OCC(=O)N3CCc4ccccc4C3)ccc12 | ?
COc1ccc(C(C)=O)cc1CSc1nc2cc(C(=O)O)ccc2c(=O)n1Cc1ccccc1 | ?
O=c1/c(=C/c2ccco2)sc2n1CN(c1cccc(Br)c1)CN=2 | 25µM*
CN(C)/C=N/c1ncc(C(=O)c2ccc3ccccc3c2)s1 | ?
COc1ccc(OC)c2sc(NC(=O)CCSc3ccccc3)nc12 | ?
CCOC(=O)C(NC(=O)c1ccc(OC)cc1)(N1CCOCC1)C(F)(F)F (centres undefined) | -6%
CC(C)NCCCOc1ccc(Cl)cc1Br | -8%
COCC(=O)Nc1cc([N+](=O)[O-])ccc1OC | -4%
CCCSc1nc(SCC(=O)NCc2ccccc2)c2c3c(sc2n1)COC(C)(C)C3 | -11%
N#Cc1ccc(C23CC4(C2)[C@H](CN(CC2CCCCC2)[C@@H]4c2ccccc2)C3c2ccc(Cl)nc2)cc1 (some centres undefined) | 0%

HPGD inh: what is marked active above
SMILES | HPGD inh
COc1ccccc1C(=O)Nc1ccc(C(=O)N2CCCC2)cc1 | 1.4µM*
Cc1cc(O)c(C=O)c2c1C(=O)Oc1c(COC(=O)/C=C/C(=O)O)c(O)c(C(=O)O)c(C)c1O2 | 1.4µM*
Cc1cc(=O)oc2c1ccc1oc(/C(=N/O)c3ccccc3)c(C)c12 | 13µM*
Cc1cccc(-c2noc(CCC(=O)NCC3CCCO3)n2)c1 (centres undefined) | 25µM*
CC(C)(C)NC(=O)CSc1ncnc2c1nnn2Cc1ccccc1Cl | 32µM*
O=c1/c(=C/c2ccco2)sc2n1CN(c1cccc(Br)c1)CN=2 | 25µM*

(further entries)
SMILES | HPGD inh
Cc1c(C(=O)N(C)C)c2ccc(Cl)cc2n1O | -12%
CCOC(=O)CSc1nc2c(c(=O)[nH]c(=O)n2C)n1CCc1ccccc1 | -12%
N#CCCN1CCN(S(=O)(=O)c2ccc(S(=O)(=O)N3CCCC3)cc2)CC1 | 0%
COCCn1cnc2c1c(=O)n(CC(=O)Nc1cc(C)on1)c(=O)n2Cc1ccccc1 | -7%
CC(=C\C(=O)O)/C(=C/c1ccc(C)o1)C(=O)O | -19%
CC(C)CC(COCc1cccc(Cl)c1)N1CCN(C(=O)c2ccc(C(F)(F)F)cc2)CCC1=O (centres undefined) | -8%
CC(Oc1ccc(Cl)cc1)C(=O)NCCCn1ccnc1 (centres undefined) | -11%
CN1CCN(c2ncnc3c2[nH]c2ccc(F)cc23)CC1 | ?
CC(C)OC(=O)C1C(=O)CC(C)(O)C(C(=O)OC(C)C)C1c1ccc(F)cc1 (centres undefined) | -2%
CN(CC(=O)Nc1cccc2ccccc12)C(=O)/C=C/c1cccs1 | -9%
Cc1cccc(C)c1NC(=O)N1C(C(=O)O)CSC1C(=O)O (centres undefined) | -9%
CC(C)C(=O)Nc1nnc(SCC(=O)NCc2ccco2)s1 | -10%
Cc1ccc(C)c(S(=O)(=O)NCC(=O)Nc2sc3c(c2C(N)=O)CCC(C)C3)c1 (centres undefined) | ?
COCCn1nnnc1C(C(C)C)N(Cc1cccnc1)Cc1cc2cc(OC)ccc2[nH]c1=O (centres undefined) | -14%
Cc1nnc(SCC(=O)NC(C)(C)C)n1C1CCCCC1 | -8%
COC(=O)[C@@H]1C[C@@]2(O)[C@H](O)[C@H](O)[C@H](O)C[C@H]2N1Cc1cccc2ccccc12 | -3%
COc1ccc(NC(=O)Cn2nc(C(F)(F)F)c3c2CCCC3)c(OC)c1 | -2%
COc1cccc(-n2c(Cc3cc(=O)[nH]c(=O)[nH]3)nnc2SCc2cccnc2)c1 | -18%
CCCSC1=N/C(=C\C=C\c2ccco2)C(=O)S1 | -28%
NCCCCCc1nnc(SCC(=O)Nc2cccc(Cl)c2)o1 | -1%
S=C(Nc1ccc(Oc2ccccc2)cc1)NC1CCCC1 | -6%
CNC(=O)C1CC(=O)N(CCc2ccc(OC)cc2)C(=Nc2ccc(OC)cc2)S1 (centres undefined) | 4%
CN(C)S(=O)(=O)c1cccc(C(=O)NCc2ccco2)c1 | -1%
O=C(Nc1ccc(NC(=O)c2ccco2)cc1)c1ccc2c(c1)OCO2 | ?
CC1CCCN(S(=O)(=O)c2ccc(S(=O)(=O)N3CCCN(Cc4ccccc4)C3)cc2)C1 (centres undefined) | -1%

Compounds from the list above that have a cyano group, in the order listed:
SMILES | HPGD inh
CCc1ccccc1NC(=O)C(C#N)Cc1cccnc1 (centres undefined) | -3%
N#Cc1ccccc1Cn1c(=O)n(-c2ccc(CC(=O)NCc3ccco3)cc2)c(=O)c2sccc21 | -8%
N#Cc1ccc(C23CC4(C2)[C@H](CN(CC2CCCCC2)[C@@H]4c2ccccc2)C3c2ccc(Cl)nc2)cc1 (some centres undefined) | 0%
N#CCCN1CCN(S(=O)(=O)c2ccc(S(=O)(=O)N3CCCC3)cc2)CC1 | 0%
